Screening data (PubChem)
StopGo RLuc = Primary qHTS Assay for Foot and Mouth Disease Virus Antivirals against NCGC Sytravon and CBC Compound Libraries: Renilla Luciferase Signal; HEK cells with a luciferase reporter of 2A StopGo recoding; Potency, µM (titrated, usually from 57.5 µM), without a hit: at the highest dose signal change, negative = less light; 120,000 tested, 0.32% active; AID 1745857, 2022; active means well fitted falling curve with a large enough effect; inconclusive means small, poorly fitted or top-dose-only effect; inactive means no such curve, though single readings can be large or run the other way; further: nearly all actives have a fitted effect of over 55% in size; overnight with compound
StopGo FLuc = Primary qHTS Assay for Foot and Mouth Disease Virus Antivirals against NCGC Sytravon and CBC Compound Libraries: Firefly Luciferase Signal | HEK cells with a luciferase reporter of 2A StopGo recoding | Potency, µM (highest dose often 57.5 µM), for the others: at the top dose signal change, negative = less light | 120,000 tested, 0.23% active | AID 1745856, 2022; active = well fitted falling curve with a large enough effect; inconclusive = small, poorly fitted or top-dose-only effect; inactive = no such curve, though single readings can be large or run the other way; further: nearly all actives have a fitted effect of over 60% in size; overnight with compound
* = called active by the depositor; ? = inconclusive; [ ] = another dose, or the depositor's remark. On the % scale 0 is the no-effect control and ±100 the full control effect; potency means the concentration at half of the fitted maximal effect. A portion of the library; rates above refer to the full screens.

| No. | SMILES | StopGo RLuc | StopGo FLuc |
| --- | --- | --- | --- |
| 1 | CC(=O)N1CCCc2cc(S(=O)(=O)N(C)CC(=O)Nc3ccc(Cl)cc3C)ccc21 | ? | 0% |
| 2 | CCCCn1nc(C(=O)NCC(F)(F)F)c2ccccc2c1=O | -4% | -3% |
| 3 | CCN1C(=O)C(Cc2nc3ccccc3c(=O)n2-c2ccccc2)c2cc(Br)ccc21 (configuration not stated) | -26% | -12% |
| 4 | Cc1c(Cl)cccc1NC(=O)c1nc2ccccc2nc1N1CCN(C)CC1 | -17% | -19% |
| 5 | COc1ccc(-c2c(NC(=O)c3ccco3)n(-c3ccc(C)cc3)nc(C)c2=O)cc1 | 5% | -13% |
| 6 | C#CCNC(=O)c1ccc(-n2ccc(C(F)(F)F)n2)cc1 | 0% | 95%[activator] |
| 7 | COC(=O)[C@H](CC(C)C)N(CCc1cn(Cc2ccccc2)nn1)S(=O)(=O)c1ccccc1Br | 71%[activator] | -13% |
| 8 | COc1ccccc1Cc1nc2ccccc2nc1SCC(=O)Nc1ccc2c(c1)OCO2 | 5% | 7% |
| 9 | CN(Cc1ccccc1)c1oc(COc2ccc(F)cc2)nc1C#N | -6% | 12% |
| 10 | Cc1ccc2c(C(=O)O)csc2c1 | 6% | 0% |
| 11 | O=C(COC(=O)C1C=CCCC1)c1cccc([N+](=O)[O-])c1 (configuration not stated) | 11% | 11% |
| 12 | CCN1CCN(Cc2c(O)ccc3oc(C)c(C(=O)Nc4cccc(C(F)(F)F)c4)c23)CC1 | 7% | -3% |
| 13 | CCN(CC)CCCNC(=O)NC12CC3CC(CC(C3)C1)C2 | 3% | 19% |
| 14 | COc1ccc(CNc2oc(-c3ccc(C)cc3)nc2C#N)cc1 | 0% | 173%[activator] |
| 15 | CONC(=O)Cc1ccc(OC)cc1 | -2% | -2% |
| 16 | CC(C)N(Cc1ccccc1)C(=O)COc1ncnc2c(Cl)cc(Cl)cc12 | 0% | -1% |
| 17 | CCCCN(C)C(=O)c1ccc2c(c1)N(Cc1cccc(Cl)c1)C(=O)c1ccccc1S2=O (configuration not stated) | 20% | 0% |
| 18 | O=[N+]([O-])O[C@H]1CO[C@H]2[C@@H]1OC[C@H]2O[N+](=O)[O-] | 10% | 14%[11.5 µM] |
| 19 | COc1ccc(CCN2C(=O)N(c3ccc(F)cc3)C(=O)C2CC(=O)Nc2ccc(OC)cc2)cc1 (configuration not stated) | 141%[activator] | -20% |
| 20 | COC(=O)c1cc(NC(=O)c2nc3ccccc3nc2N2CCCC2)cc(C(=O)OC)c1 | -5% | -1% |
| 21 | C=Cc1ccc(Cn2c(C(=O)O)c(CNCCc3ccccc3)c3ccc(C)cc32)cc1 | 64%[activator] | -19% |
| 22 | Cc1cc(NC(=O)CSc2nc3c([nH]c4ccccc43)c(=O)n2-c2ccccc2)no1 | 1% | 10% |
| 23 | Cc1ccc2c(CN3CCc4cc(S(N)(=O)=O)ccc43)cc(=O)oc2c1C | 19% | 150%[activator] |
| 24 | COC(=O)c1ccc2nc(C)cc(Nc3ccc(N(C)C)cc3)c2c1 | ? | 0% |
| 25 | COc1ccc2c(c1)sc1ncc(C(=O)NCc3cccc(C)c3)c(=O)n12 | -4% | 5% |
| 26 | Cc1ccc(-c2nnc(SCc3cccc(S(=O)(=O)N4CCOCC4)c3)n2N)cc1 | -22% | 3% |
| 27 | Cc1ccccc1Nc1nc(N)nc(COC(=O)c2nn(C)c(=O)c3ccccc23)n1 | 5% | 22% |
| 28 | COc1cc(OC)cc(C(=O)Nc2cc3nn(-c4ccccc4)nc3cc2Cl)c1 | -1% | 80%[activator] |
| 29 | Oc1ccc(Nc2nc(-c3ccccc3F)nc3ccccc23)cc1 | 23% | 23% |
| 30 | Cc1cc(C)cc(NC(=O)C2CCCN(C(=O)c3cnn(-c4ccccc4)c3-n3cccc3)C2)c1 (configuration not stated) | -23% | -29% |

The list goes on:
| No. | SMILES | StopGo RLuc | StopGo FLuc |
| --- | --- | --- | --- |
| 31 | O=S(=O)(Cc1ccccc1F)CC1COc2ccccc2O1 (configuration not stated) | 87%[activator] | 32%[activator] |
| 32 | O=C(CCn1nc(-c2ccccc2)c2ccccc2c1=O)Nc1cccc(Br)c1 | 184%[activator] | -5% |
| 33 | COc1ccc(C(=O)n2nc(-c3ccc(C)cc3)nc2N)cc1 | -11% | 56%[activator] |
| 34 | CCSc1nnc2c(n1)OC(CC)N(C(C)=O)c1ccccc1-2 (configuration not stated) | -7% | 9% |
| 35 | COc1ccc(CN2CCN(C(=O)c3cc4c(s3)CCC4)CC2)cc1 | ? | ? |
| 36 | COc1ccc(Cl)cc1NS(=O)(=O)c1cccc(C(=O)N2CCc3sccc3C2)c1 | 235%[activator] | -3% |
| 37 | C=CCn1c(N2CCN(Cc3ccc(Cl)cc3Cl)CC2)nc2c1c(=O)[nH]c(=O)n2C | -9% | -10% |
| 38 | COc1ccc(-c2ccc(=O)n(C3CCc4ccccc4NC3=O)n2)c(F)c1 (configuration not stated) | 43%[activator] | 15% |
| 39 | Cc1c(C(=O)NCC(c2ccco2)N2CCOCC2)oc2ccccc12 (configuration not stated) | 2% | 3% |
| 40 | Cc1cc(C)cc(C(=O)Nc2ccc(-c3cn4cccnc4n3)cc2)c1 | -15% | -8% |
| 41 | CC1CCN(c2nc3c(c(=O)n(C)c(=O)n3C)n2CC(=O)c2ccc(Br)cc2)CC1 | 41%[activator] | 0% |
| 42 | CCOc1ccc(-c2cc3c(N4CCC(C(=O)NCc5cccs5)CC4)nccn3n2)cc1 | -4% | 0% |
| 43 | CCc1ccc(OCC(=O)Nc2c(C(=O)c3ccccc3)oc3ccccc23)cc1 | -14% | -4% |
| 44 | Cc1ccc(-c2cc3nccc(-c4cc([N+](=O)[O-])ccc4O)n3n2)cc1 | 41%[activator] | 21% |
| 45 | COc1ccc(Cl)cc1NC(=O)CSC1=Nc2ccccc2C2=NC(CC(=O)NC3CCCCC3)C(=O)N12 (configuration not stated) | 11% | -7% |
| 46 | CC(C)CSc1nc2c(c(=O)n(C)c(=O)n2C)n1CCCc1ccccc1 | -6% | 2% |
| 47 | CCOC(=O)c1cc(S(=O)(=O)Nc2cccc(C)c2C)[nH]n1 | 10% | 7% |
| 48 | COc1cc(C)cc2oc(=O)c(CC(=O)NCc3ccc(C)cc3)c(C)c12 | -12% | 3% |
| 49 | N#CC1=C(N)n2ncnc2NC1c1ccccc1Cl (configuration not stated) | -11% | -10% |
| 50 | Cc1nc(N2CCC(C(=O)Nc3cccc(Cl)c3C)CC2)c2c(C)c(C)oc2n1 | -3% | -3% |
| 51 | COc1ccc(OC)c(CN2C(=O)COc3ccccc3C2c2nnnn2C2CCCC2)c1 (configuration not stated) | 75%[activator] | -11% |
| 52 | CC(C)C(=O)/C(C#N)=C\c1cccc(C#N)c1 | 0% | 30%[activator] |
| 53 | COc1ccc(CNC(=O)c2ccc3c(c2)CCN3S(=O)(=O)c2ccc(C)cc2)cc1 | 33% | 11% |
| 54 | O=C(Cn1nnc(-c2ccc(F)cc2)n1)c1ccc2c(c1)CCCC2 | 0% | 12% |
| 55 | CN(C)C(=O)CNS(=O)(=O)c1ccc(F)c(Cl)c1 | 109%[activator] | -2% |
| 56 | CCCN(CCC)c1nc(-c2ccccc2O)nc2ccccc12 | -2% | 3% |
| 57 | Cc1ccc(C(=O)c2cn(CC(=O)NC3CCCCC3)c3nc(C)ccc3c2=O)cc1 | 4% | -8% |
| 58 | Cc1nn(-c2ccc(C(=O)NC3CCCC3)cc2)c(NC(=O)C2CC2)c1-c1ccccc1 | -4% | -2% |
| 59 | CCN(CC)S(=O)(=O)c1ccc2nc(N)sc2c1 | 96%[activator] | 3% |
| 60 | Oc1ccc(/C=C/c2cc(-c3ccccc3)cc(-c3ccccc3)[o+]2)cc1 | 73%[activator] | 17% |

Next part.
| No. | SMILES | StopGo RLuc | StopGo FLuc |
| --- | --- | --- | --- |
| 61 | COc1ccc(C2NC(=O)N(C)C3=C2C(=O)N(c2ccc(C)cc2)C3)cc1 (configuration not stated) | -10% | -13% |
| 62 | CC(Sc1ccc2c(c1)CCC2)C(=O)Nc1ccc(C(N)=O)cc1 (configuration not stated) | 24% | 0% |
| 63 | CC(=O)Nc1ccc(C(=O)C(C)SC2CCCCC2)cc1 (configuration not stated) | 38%[activator] | 0% |
| 64 | CC(C)(C)OC(=O)N/N=C/c1c(Cl)cccc1Cl | 15% | 74%[activator] |
| 65 | COc1ccc(-c2noc(CSc3nnc(Cc4ccccc4)n3-c3ccc(F)cc3)n2)cc1 | ? | ? |
| 66 | COc1ccc(OC)c(CCNC(=O)c2ccc3c(c2)c(C)c(C)n3Cc2ccccc2)c1 | 1% | -7% |
| 67 | COC(=O)Cn1c(=O)n(CCc2ccccc2)c(=O)c2sc3c(c21)COC(C)(C)C3 | -5% | 29% |
| 68 | CCOC(=O)c1ccc(NC(=O)Cn2cc(C(=O)c3cccs3)c3ccccc32)cc1 | -2% | -7% |
| 69 | CCn1c(=O)n(-c2ccc3c(c2)OCO3)c2nc(-c3ccc(C(C)C)cc3)nc(C(N)=O)c21 | -9% | -5% |
| 70 | CCCc1cc(=O)oc2cc(OCC(=O)NCCc3ccc(S(N)(=O)=O)cc3)ccc12 | 28% | -6% |
| 71 | CCC(CC)C(=O)Nc1c(C(=O)N2CCN(c3ccccc3)CC2)oc2ccccc12 | 298%[activator] | 0% |
| 72 | CC(C)NC(=O)Nc1c(NC2CCCCC2)c2ccccc2oc1=O | 41%[activator] | 0% |
| 73 | COc1ccc2c(ccn2CC(=O)NCC2CCC(C(=O)O)CC2)c1 (configuration not stated) | -7% | 20% |
| 74 | O=C(COc1ccc(Cl)cc1)c1ccc(Cl)cc1Cl | 31%[activator] | 116%[activator] |
| 75 | CCn1c(CNC(C)c2ccc(F)c(F)c2)nc2cc(S(=O)(=O)N3CCOCC3)ccc21 (configuration not stated) | 0% | -12% |
| 76 | COc1ccc(OC)c2sc(N(Cc3cccnc3)C(=O)c3ccc(C(C)=O)cc3)nc12 | 4% | 23% |
| 77 | Cc1cccc(C(=O)Nc2cccc(-c3cn4ccccc4n3)c2)c1 | ? | 24% |
| 78 | O=C(N[C@@H](C(=O)NCc1ccncc1)c1ccccc1)C(c1ccccc1)c1ccccc1 | 22% | 2% |
| 79 | COC(=O)[C@]12C[C@H](CC(=O)NCCCN3CCCC3=O)C(=O)N(CCc3ccc(OC)c(OC)c3)C1=C[C@H](COCc1ccccc1)O[C@@H]2C | 2% | 9% |
| 80 | CCC(=O)N1CCc2cc(S(=O)(=O)NCCC(=O)Nc3ccc(C)cc3)ccc21 | -3% | -20% |
| 81 | Nc1ccc(N=Nc2ccccc2)cc1 | -24%[114 µM] | 37%[activator][115 µM] |
| 82 | CCCCC1CCC(c2ccc(-c3ccc(CC)cc3)nc2)CC1 (configuration not stated) | -9%[1.06 µM] | -6% |
| 83 | CCCCn1c(N)c(N(CCOC)C(=O)c2cc(-c3ccccc3)nc3ccccc23)c(=O)[nH]c1=O | 1% | 6% |
| 84 | C=CCn1c(SCc2coc(-c3ccc(F)cc3)n2)nnc1C1CCS(=O)(=O)C1 (configuration not stated) | -9% | 11% |
| 85 | COc1cccc(CNC(=O)C2CCN(C(=O)N3CC(C)Oc4ccc(C)cc43)CC2)c1 (configuration not stated) | -18% | -25% |
| 86 | CCCCn1c(=O)[nH]c(=O)c2c1nc(-c1ccc(OC)cc1)n2C | -6% | 9% |
| 87 | CCOCCCNC(=O)CN1C(=O)COc2ccc(S(=O)(=O)N3CCCC3)cc21 | -5% | -10% |
| 88 | S=C(NCCSc1ccc(Cl)cc1)NC1CC1 | 41%[activator] | 40%[activator] |
| 89 | O=S(=O)(O)CCS | -4% | 5%[11.5 µM] |
| 90 | COCc1cc(C)n(CC(=O)Nc2cc(Cl)ccc2Cl)c(=O)c1C#N | -4% | -16% |

(more compounds)
| No. | SMILES | StopGo RLuc | StopGo FLuc |
| --- | --- | --- | --- |
| 91 | CCc1cccc(C)c1NC(=O)CCCn1nc(C)c2sc3ccccc3c2c1=O | 3% | -1% |
| 92 | Cc1nc2ccncc2nc1C | 1% | -2% |
| 93 | Cc1ccc(Cn2c(CN3CCC(C(=O)NCc4ccccc4C)CC3)cc3ccccc32)cc1 | -10% | -10% |
| 94 | COc1ccc2nc(SCC(=O)N(C3CCCC3)C3CCS(=O)(=O)C3)[nH]c2c1 (configuration not stated) | -2% | 0% |
| 95 | Cc1ccc(S(=O)(=O)NCCO)cc1 | 30% | -2% |
| 96 | Cc1cccc(N2CCN(C(=O)Cn3ncc4c5ccccc5n(C)c4c3=O)CC2)c1C | -2% | -15% |
| 97 | Cc1cc(N2CCCC2)nc(Nc2ccc(NS(=O)(=O)c3ccc(Br)cc3)cc2)n1 | -17% | 32µM* |
| 98 | CCC1CSC(Nc2ccc(C)cc2)=N1 (configuration not stated) | 15% | 55%[activator] |
| 99 | CNC(=O)c1ccc(OCc2coc(-c3ccc(F)cc3)n2)cc1 | -12% | 4% |
| 100 | O=c1c2ccccc2nc(-c2ccccc2)n1CCN1CCOCC1 | -11% | -10% |
| 101 | COc1ccc(NS(=O)(=O)c2ccc(OCC(=O)NCc3ccc4c(c3)OCO4)c(C)c2)cc1 | 200%[activator] | -1% |
| 102 | CCCCCNC(=O)c1ccc(Nc2ccc(-c3cccc(C)c3)nn2)cc1 | 7% | 0% |
| 103 | CCn1nc(C(=O)Nc2nc(C)c(C(C)=O)s2)c2ccccc2c1=O | 0% | 11% |
| 104 | Cc1ccc(C(CNC(=O)c2cc3ccccc3oc2=O)N(C)C)o1 (configuration not stated) | -14% | 30%[activator] |
| 105 | CCc1ccc(S(=O)(=O)NCCc2cn3ccsc3n2)cc1 | 193%[activator] | -5% |
| 106 | COc1ccc2c(c1)c(C(C(=O)O)N1CCC(Cc3ccccc3)CC1)cn2CC(=O)O (configuration not stated) | -20% | -12% |
